VACV Venus inh: vaccinia inhibition (Venus reporter). Potency, µM (top dose mostly 36.5 µM), without a hit: top-dose activity change, negative = inhibition, hits mostly inhibitors. hit rate 0.46% among 330,000. AID 720580. Vaccinia virus Venus reporter expression, fluorescence; active means well fitted inhibition curve with a large enough effect; inconclusive means small, poorly fitted or top-dose-only effect; inactive means no such curve, though single readings can be large or run the other way; tested in A549 cells; note: nearly all actives have a fitted effect of over 30% in size; inactives centre near -10
Vaccinia mCherry: vaccinia inhibition (mCherry reporter). Vaccinia virus mCherry reporter infection, fluorescence; about a quarter of the inactives have no number. Potency, µM (doses to about 36.5 µM), for inactives: at the highest dose activity change, negative = inhibition, actives largely listed as inhibitors. hit rate 0.63% among 310,000. AID 720579; active = well fitted inhibition curve with a large enough effect; inconclusive = small, poorly fitted or top-dose-only effect; inactive = no such curve, though single readings can be large or run the other way; tested in A549 cells; note: nearly all actives have a fitted effect of over 35% in size; inactives centre near -10
An asterisk follows results filed as active; & = joins results of further samples; [ ] = remark or other dose. % is set by controls: 0 for no effect and ±100 for the full control effect; potency is the fitted concentration of half-maximal effect.

How did CCO[C@@H]1OC(C(=O)O)=C[C@H](C2CCCCC2)[C@H]1CCCO do in these assays?
VACV Venus inh: 3.3%; Vaccinia mCherry: inactive

How did Cc1ccc(-c2nc3ccc(Br)cn3c2CC(C)(C)C)cc1 do in these assays?
VACV Venus inh: 0.3%; Vaccinia mCherry: inactive

Results for Cc1noc(C)c1COC(=O)c1cccc(S(=O)(=O)N2CCOCC2)c1 ?
VACV Venus inh: -12.8%; Vaccinia mCherry: -22.1%

How did Cc1cc(Cl)c2cc3ccccc3cc2n1 do in these assays?
VACV Venus inh: -7.0%; Vaccinia mCherry: inactive

How did O=C(c1cnc2sccn2c1=O)N1CCc2ccccc2C1 do in these assays?
VACV Venus inh: -0.5%; Vaccinia mCherry: -7.8%

What do the screens show for `Cc1c(C(=O)O)oc2ccc(S(=O)(=O)N3CCCCC3C(=O)O)cc12` (centres undefined)?
VACV Venus inh: -2.5%; Vaccinia mCherry: 21.1%

Results for CC1(C(=O)NS(=O)(=O)c2cccc(F)c2)CCN1C(=O)CCc1ccccc1 (centres undefined) ?
VACV Venus inh: 5.7%; Vaccinia mCherry: 37.3%[activator]

Results for COc1ccc(C(=S)N2CCOCC2)cc1OC(=O)c1ccccc1Cl ?
VACV Venus inh: -19.4%; Vaccinia mCherry: -27.2%

How did O=C(CN1CCC(Cc2ccccc2)CC1)NCCc1ccc(F)cc1 do in these assays?
VACV Venus inh: -15.5%; Vaccinia mCherry: -19.0%

What do the screens show for `Cc1ccc(NC(=O)c2ccc(S(=O)(=O)Nc3c(C)n(C)n(-c4ccccc4)c3=O)cc2)nc1`?
VACV Venus inh: -12.7%; Vaccinia mCherry: -13.2%

Results for Cc1cc(C)c(C#N)c(SCCN2CCOCC2)n1 ?
VACV Venus inh: -9.4%; Vaccinia mCherry: -14.4%

How did CCOc1nc(NC2CCCCC2)nc(NC(C)(C)C)n1 do in these assays?
VACV Venus inh: -14.6%; Vaccinia mCherry: -22.4%

Results for C/C(=N\NC(=O)c1c(Cl)c(C)nn1C)c1ccc(NC(=O)COc2ccc(Cl)cc2C)cc1 ?
VACV Venus inh: 0.9%

What do the screens show for `Clc1ccc(Cn2nnc(-c3ccc(N4CCOCC4)cc3)n2)cc1`?
VACV Venus inh: -4.9%; Vaccinia mCherry: -4.7%

How did COc1ccc(CNC(=O)Cn2c(=O)oc3cc(S(=O)(=O)N4CCCC4)ccc32)cc1 do in these assays?
VACV Venus inh: -12.6%&-14.0%; Vaccinia mCherry: -9.2%&-23.5%

How did CCSC(C)CC1CC(=O)CC(=O)C1 (centres undefined) do in these assays?
VACV Venus inh: -0.9%

What do the screens show for `CNC(=O)c1sccc1Oc1ccc(F)cc1[N+](=O)[O-]`?
VACV Venus inh: -8.5%; Vaccinia mCherry: inactive

How did COc1ccc(C(=O)NC(=O)NC2(C(Cl)(Cl)Cl)OCCO2)cc1 do in these assays?
VACV Venus inh: -15.2%; Vaccinia mCherry: inactive

What do the screens show for `O=C(CCCOc1ccccc1)N1CCN(c2ccc(F)cc2)CC1`?
VACV Venus inh: -12.5%

How did Cc1ccc(N(C(=O)C2CCC(=O)N2)C2(C(=O)NC3CCCCC3)CCCCC2)cc1 (centres undefined) do in these assays?
VACV Venus inh: -7.6%; Vaccinia mCherry: -16.0%

What do the screens show for `O=C(Cn1c(-c2ccccn2)nc2ccccc21)N/N=C/c1cccnc1`?
VACV Venus inh: -20.3%; Vaccinia mCherry: 11.1%

How did Cc1ccccc1C(=O)Nc1nc2c(s1)CC(C(C)(C)C)CC2 (centres undefined) do in these assays?
VACV Venus inh: -0.3%; Vaccinia mCherry: -16.4%

Results for COc1cc(-n2c(=O)c3ccccc3n(Cc3cc(=O)n4ccccc4n3)c2=O)cc(OC)c1OC ?
VACV Venus inh: -4.4%; Vaccinia mCherry: -14.2%

Results for CCc1ccccc1NC(=O)CCCSc1nc(-c2ccco2)cc(C(F)(F)F)n1 ?
VACV Venus inh: -3.1%; Vaccinia mCherry: -14.3%

What do the screens show for `O=C(CSc1nc2cc(C(=O)NC3CCCC3)ccc2c(=O)n1CC1CCCO1)c1cccc(Cl)c1` (centres undefined)?
VACV Venus inh: -19.1%; Vaccinia mCherry: -2.7%

How did Cc1nc(C(F)(F)F)ccc1C(=O)N1CCC1(C)C(=O)NS(=O)(=O)c1ccc2c(c1)CCO2 (centres undefined) do in these assays?
VACV Venus inh: 5.6%; Vaccinia mCherry: 33.4%[activator]

What do the screens show for `Cc1oc2ccc(OC(=O)COc3c(F)c(F)c(F)c(F)c3F)cc2c1C(=O)OC(C)C`?
VACV Venus inh: -12.5%; Vaccinia mCherry: -1.3%

What do the screens show for `COc1ccc(N2CCN(S(=O)(=O)c3c(C)nc4sc(C)cn4c3=O)CC2)cc1`?
VACV Venus inh: -4.9%; Vaccinia mCherry: -6.0%

How did COc1cc2c(cc1NC(=O)COC(=O)c1ccc(C(C)(C)C)cc1)oc1ccccc12 do in these assays?
VACV Venus inh: -4.6%; Vaccinia mCherry: inactive

What do the screens show for `CC(C)c1cc(C(=O)O)c2ccccc2n1`?
VACV Venus inh: 6.1%; Vaccinia mCherry: -4.3%

How did CCOC(=O)C1=C(C)Nc2ncnn2C1c1c[nH]c2ccccc12 (centres undefined) do in these assays?
VACV Venus inh: -5.1%; Vaccinia mCherry: -10.6%

How did O=S(=O)(/C=C/c1ccccc1)N1CCC(n2c(C3CCCO3)nc3cccnc32)CC1 (centres undefined) do in these assays?
VACV Venus inh: 10.8%; Vaccinia mCherry: 0.8%

Results for CN(C(=O)c1ccccc1C(=O)OCC(=O)NCc1cccs1)C1CCCCC1 ?
VACV Venus inh: -25.5%; Vaccinia mCherry: -24.1%

Results for CCCCC(=O)N/N=C/c1c(O)n(CCc2ccc(OC)c(OC)c2)c(=O)[nH]c1=O ?
VACV Venus inh: -14.4%; Vaccinia mCherry: -8.0%

What do the screens show for `CC(C)Cn1c(SCC(=O)NCc2ccc(Cl)cc2)nnc1-c1cccc(S(=O)(=O)N2CCOCC2)c1`?
VACV Venus inh: -19.7%; Vaccinia mCherry: inactive

How did CCN(CC)c1ccc(C(NC(C)=O)NC(C)=O)cc1 do in these assays?
VACV Venus inh: -7.5%

What do the screens show for `CCc1ccc2c(COn3nnc4ccc(S(=O)(=O)N(C)C)cc43)cc(=O)oc2c1`?
VACV Venus inh: -11.3%

Results for CCOc1ccc(/C=N/NC(=O)c2nnn(-c3nonc3N)c2CN2CCC(C)CC2)cc1 ?
VACV Venus inh: -8.9%; Vaccinia mCherry: -7.0%

Results for CCOc1ccc(N2C(=O)C3C(c4ccccc4)=NN(c4ccccc4)C3C2=O)cc1 (centres undefined) ?
VACV Venus inh: 0.0%; Vaccinia mCherry: inactive

What do the screens show for `CCC(CC)NC(=O)COc1ccc(OC)cc1C=O`?
VACV Venus inh: 1.6%; Vaccinia mCherry: 3.6%

What do the screens show for `O=C1C(C=NC2CC2)=C(O)c2ccccc21`?
VACV Venus inh: -8.2%

What do the screens show for `Cc1ccc(S(=O)(=O)c2nnn3c2nc(N2CCOCC2)c2sccc23)cc1C`?
VACV Venus inh: inconclusive; Vaccinia mCherry: inconclusive

What do the screens show for `CCN(CC)C(=O)Cn1c(=O)n(CCCCCC(=O)NCc2ccc(C)cc2)c(=O)c2sccc21`?
VACV Venus inh: -12.9%; Vaccinia mCherry: -24.8%

How did CCOC(=O)C1CCN(C(=O)c2ccc(Cl)c(NC3=NC4CS(=O)(=O)CC4S3)c2)CC1 (centres undefined) do in these assays?
VACV Venus inh: 3.1%; Vaccinia mCherry: -11.1%

Results for O=C(Nc1ccccc1)Nc1ccccc1C(=O)NCc1ccccc1 ?
VACV Venus inh: -7.1%; Vaccinia mCherry: -8.9%

What do the screens show for `N/C(=N\OC(=O)c1ccc(=O)n(Cc2ccccc2)c1)c1ccccn1`?
VACV Venus inh: -8.3%; Vaccinia mCherry: -22.6%

Results for CCOC(=O)Cc1cc(=O)n2[nH]cc(-c3ccc(Cl)cc3)c2n1 ?
VACV Venus inh: -4.0%; Vaccinia mCherry: -11.3%

How did Cc1cc(NC(=O)CSCC(=O)Nc2ccccc2OC(F)F)no1 do in these assays?
VACV Venus inh: 4.6%; Vaccinia mCherry: -8.0%

Results for CC(C)CNC(=O)CSc1nnc(CN2CCCCCC2=O)n1-c1ccccn1 ?
VACV Venus inh: 9.6%; Vaccinia mCherry: 4.3%

What do the screens show for `O=C(O)C1=C[C@@H](c2ccccc2)C[C@@H](OCc2ccc(CO)cc2)O1`?
VACV Venus inh: -6.1%; Vaccinia mCherry: inactive

What do the screens show for `CCOC(=O)c1[nH]c2ccc(OC)cc2c1NC(=O)CCN1CCc2ccccc2C1`?
VACV Venus inh: -15.4%

How did CCCCCC(=O)Nc1ccc(-c2nnc3n2CCCCC3)cc1 do in these assays?
VACV Venus inh: 8.0%; Vaccinia mCherry: -9.5%

What do the screens show for `O=c1ccc(-c2ccc(S(=O)(=O)Nc3ccc(F)cc3)s2)n[nH]1`?
VACV Venus inh: -4.8%; Vaccinia mCherry: -16.7%

How did Cc1ccc(C)c(OCCC(=O)OC(C)C(=O)Nc2c(C)n(C)n(-c3ccccc3)c2=O)c1 (centres undefined) do in these assays?
VACV Venus inh: -9.9%; Vaccinia mCherry: inactive

How did CN(C(=O)CSc1nnc(COc2ccccc2F)n1N)C1CCCCC1 do in these assays?
VACV Venus inh: -7.2%; Vaccinia mCherry: -28.2%

How did CCCCC(=O)Nc1ccc(OCc2cc(=O)n3c(C)csc3n2)cc1 do in these assays?
VACV Venus inh: -5.5%; Vaccinia mCherry: -8.7%

How did COc1ccccc1C(=O)NC(=O)Cn1nc(C)c([N+](=O)[O-])c1C do in these assays?
VACV Venus inh: -11.5%; Vaccinia mCherry: inactive

What do the screens show for `CCCn1ncc(C(=O)O)c1C`?
VACV Venus inh: -12.2%; Vaccinia mCherry: -14.6%

What do the screens show for `Cc1nn(-c2ccccc2)c(C)c1NC(=O)COC(=O)[C@@H](NC(=O)c1ccccc1)C(C)C`?
VACV Venus inh: -19.1%; Vaccinia mCherry: -10.3%

Results for CCOc1cc(/C=N/NC(=O)C(=O)NC)cc(Br)c1O ?
VACV Venus inh: -14.1%; Vaccinia mCherry: inactive

Random excerpt: seven compounds from above, in no set order.
How did CCCCCC(=O)Nc1ccc(-c2nnc3n2CCCCC3)cc1 do in these assays?
VACV Venus inh: 8.0%; Vaccinia mCherry: -9.5%

How did Cc1cc(NC(=O)CSCC(=O)Nc2ccccc2OC(F)F)no1 do in these assays?
VACV Venus inh: 4.6%; Vaccinia mCherry: -8.0%

What do the screens show for `CCOC(=O)c1[nH]c2ccc(OC)cc2c1NC(=O)CCN1CCc2ccccc2C1`?
VACV Venus inh: -15.4%

What do the screens show for `CCCn1ncc(C(=O)O)c1C`?
VACV Venus inh: -12.2%; Vaccinia mCherry: -14.6%

Results for CC(C)CNC(=O)CSc1nnc(CN2CCCCCC2=O)n1-c1ccccn1 ?
VACV Venus inh: 9.6%; Vaccinia mCherry: 4.3%

What do the screens show for `O=C(O)C1=C[C@@H](c2ccccc2)C[C@@H](OCc2ccc(CO)cc2)O1`?
VACV Venus inh: -6.1%; Vaccinia mCherry: inactive

How did COc1ccccc1C(=O)NC(=O)Cn1nc(C)c([N+](=O)[O-])c1C do in these assays?
VACV Venus inh: -11.5%; Vaccinia mCherry: inactive

The results go on.
Results for N#CCCn1cc(/C=C2\NC(=S)N(c3ccccc3)C2=O)c(-c2ccc(F)cc2)n1 ?
VACV Venus inh: -13.2%; Vaccinia mCherry: inconclusive

Results for COc1ccc(C2c3ccc4ccccc4c3Oc3ncn(Cc4ccco4)c(=N)c32)cc1OC (centres undefined) ?
VACV Venus inh: inconclusive; Vaccinia mCherry: -22.6%

What do the screens show for `O=C(CSc1ncnc2nc[nH]c12)NCCc1ccccc1`?
VACV Venus inh: -8.1%; Vaccinia mCherry: inactive

How did COc1ccc(CCn2c3c(c(=O)[nH]c2=O)C(NC(=O)c2ccc(C(C)(C)C)cc2)(C(F)(F)F)C(=O)N3)cc1OC (centres undefined) do in these assays?
VACV Venus inh: -8.5%; Vaccinia mCherry: -2.8%

How did Cc1ccc(CNC(=O)CCNS(=O)(=O)c2ccc3c(c2)c(=O)n(C)c(=O)n3C)cc1 do in these assays?
VACV Venus inh: -3.4%; Vaccinia mCherry: -7.5%

How did O=C(CCN1C(=O)S/C(=C\c2ccc(Cl)cc2)C1=O)Nc1ccc(C(=O)O)cc1 do in these assays?
VACV Venus inh: -5.6%; Vaccinia mCherry: -5.2%

How did O=C(CSc1n[nH]c(-c2ccccc2O)n1)NC1CCCCC1 do in these assays?
VACV Venus inh: -18.8%; Vaccinia mCherry: -12.3%

Results for O=C(CCc1nc2ccccc2[nH]1)N1CCN(C(=O)c2ccco2)CC1 ?
VACV Venus inh: -2.4%; Vaccinia mCherry: -2.4%

Results for COc1ccc(/C=N/Nc2ccc(C(=O)O)cc2)c(OC)c1OC ?
VACV Venus inh: -8.4%; Vaccinia mCherry: -27.6%

What do the screens show for `O=C(NCCCN1CCOCC1)c1ccc(Sc2ccc(Br)cc2)c([N+](=O)[O-])c1`?
VACV Venus inh: -0.6%; Vaccinia mCherry: -5.0%

What do the screens show for `Clc1ccc2c(c1)-c1ccccc1C1=NCCN12`?
VACV Venus inh: inconclusive; Vaccinia mCherry: inconclusive

What do the screens show for `CC(C)CCNC(=O)c1cc(Sc2ccc(F)cc2F)nc2ccccc12`?
VACV Venus inh: -16.1%; Vaccinia mCherry: -5.9%

Results for CCOC(=O)c1[nH]c2ccccc2c1N=C(C)N(CC)CC ?
VACV Venus inh: -18.2%; Vaccinia mCherry: inactive

What do the screens show for `Cc1cccc2c1N(CCOc1ccccc1)C(=O)C2=O`?
VACV Venus inh: -14.2%; Vaccinia mCherry: -12.6%
